Screens (PubChem BioAssay)
HP1b chromo inh: HP1-beta chromodomain-methylated histone interaction inhibition; P83916; AlphaScreen HP1-beta / biotin-H3K9me3 peptide binding; Potency, µM (doses to about 114 µM), for inactives: at the highest dose activity change, negative = inhibition, most hits filed as inhibitors; hit rate 0.56% among 390,000; also: potency is read from the fitted curve at half-maximal effect; nearly all actives have a fitted effect of over 70% in size; inactives centre near 23
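AlphaScreen: HP1-beta (50 nM) preformed 30 min with biotin-H3(1-18)K9me3 peptide (50 nM) in PBS pH 7.4, 0.01% Tween-20. Compound added for 30 min at RT, then streptavidin donor/nickel chelate acceptor beads (10 ug/mL) for 30 min.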
ERG-DNA inh: ERG Ets/DNA interaction inhibition; P11308; fluorescence polarization, His-ERG Ets domain / labelled DNA; Potency, µM (series often up to 76.9 µM), for the others: at the highest dose FP activity, negative = inhibition, usual class: inhibitors; hit rate 0.028% among 370,000; AID 624246; active = well fitted inhibition curve with a large enough effect in the polarisation, with a control signal flat; inconclusive = small, poorly fitted or top-dose-only effect, or effect the other way, or a change in a side signal; inactive = no such curve, though single readings can be large or run the other way; the % refers to the polarisation;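 also: polarization taken with two DNA probes labelled with fluorescein and Texas red; potency is read from the fitted curve at half-maximal effect; % of control where 0% means no effect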
Target sequence (P11308 whole entry, looked up, the tested form may be a part): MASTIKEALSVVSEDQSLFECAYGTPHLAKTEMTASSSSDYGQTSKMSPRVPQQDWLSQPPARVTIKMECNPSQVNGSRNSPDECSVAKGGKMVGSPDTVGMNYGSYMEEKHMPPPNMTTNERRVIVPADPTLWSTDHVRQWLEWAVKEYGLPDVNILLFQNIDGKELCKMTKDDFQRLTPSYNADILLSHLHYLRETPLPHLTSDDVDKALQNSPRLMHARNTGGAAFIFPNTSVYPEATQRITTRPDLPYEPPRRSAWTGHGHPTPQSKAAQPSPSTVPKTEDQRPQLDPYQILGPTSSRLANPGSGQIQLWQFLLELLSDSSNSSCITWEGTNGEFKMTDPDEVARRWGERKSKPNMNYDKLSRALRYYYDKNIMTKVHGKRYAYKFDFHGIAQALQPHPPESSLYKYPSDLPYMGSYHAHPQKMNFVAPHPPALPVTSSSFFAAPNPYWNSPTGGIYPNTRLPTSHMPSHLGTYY
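His-tagged ERG Ets domain (1 uM in the protein solution; 300mM KCl, 50mM Tris-HCl, 1mM EDTA, 1mM DTT, pH 7.5) received compound, then a probe mix of 5 nM fluorescein-DNA and 100nM Texas-615-DNA. Fluorescence polarization was read for both dyes.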
G9a block: blocks human histone lysine methyltransferase G9a; Q96KQ7; G9a H3K9 monomethylation, AlphaScreen, 2 h; hit rate 8.8% among 350,000; Potency, µM (titrated, usually from 102 µM), inactives show at the highest dose activity, negative = inhibition, usual class: inhibitors; AID 504332; also: potency is read from the fitted curve at half-maximal effect; % is scaled to controls: 0 for no effect and ±100 for the full control effect; nearly all actives have a fitted effect of over 75% in size
Target sequence (Q96KQ7 913-1193 limits assumed): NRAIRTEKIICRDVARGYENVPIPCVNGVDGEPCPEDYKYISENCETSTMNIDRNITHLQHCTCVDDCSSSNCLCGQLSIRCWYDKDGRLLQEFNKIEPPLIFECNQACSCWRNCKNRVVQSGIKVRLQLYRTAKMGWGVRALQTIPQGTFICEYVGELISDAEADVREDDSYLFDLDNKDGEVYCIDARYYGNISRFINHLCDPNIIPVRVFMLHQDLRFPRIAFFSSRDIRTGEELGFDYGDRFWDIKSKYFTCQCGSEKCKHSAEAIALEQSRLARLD
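Using a bead-based AlphaScreen, monomethylated H3K9 product from 2 h room-temperature reactions (G9a 20 nM, peptide 500 nM, SAM 20 uM) was detected with 0.5 ug/mL rabbit anti-H3K9me1 antibody.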
PI4K2A block: PI4K2A (human) kinase inhibition; AID 1346378; purified PI4K2A, ADP-Glo luminescence, 1 h; hits give low values; hit rate 0.13% among 420,000; activity change, negative = inhibition, % at 76.9 µM; Q9BTU6; in the data active = activity change below about -50%; inconclusive = mostly about -30% to -49%;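 also: -100% = wells without enzyme as full effect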
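ADP-Glo luminescence measured ADP generated by PI4K2A enzyme (4 ug/mL before mixing) with 1.2 mM PI substrate (pre-mix) and 300 microM ATP (pre-mix). Tris pH7.5 buffer with MgCl2, Triton X-100; 1 h reaction at ambient temperature.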
Pin1 inhibitor: human Pin1 inhibition | AID 504891 | Pin1 FP peptide displacement, HiFluor488, 10 min | Q13526 | hit rate 0.009% among 390,000 | Potency, µM (doses to about 115 µM), inactives show at the highest dose activity, negative = inhibition, usual class: inhibitors; active = well fitted inhibition curve with a large enough effect in the polarisation, with a control signal flat, not every such curve was filed as active; inconclusive = small, poorly fitted or top-dose-only effect, or effect the other way, or a change in a side signal; inactive = no such curve, though single readings can be large or run the other way; the % refers to the polarisation; also: potency is read from the fitted curve at half-maximal effect; % is scaled to controls: 0 for no effect and ±100 for the full control effect
Target sequence (Q13526 whole entry, looked up): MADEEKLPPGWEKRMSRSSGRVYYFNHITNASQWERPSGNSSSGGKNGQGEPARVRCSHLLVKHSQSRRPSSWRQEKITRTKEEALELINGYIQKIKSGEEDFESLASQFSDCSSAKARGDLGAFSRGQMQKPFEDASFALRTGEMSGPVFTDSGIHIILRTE
PGK inhibitor: T. brucei PGK inhibition | PGK/GAPDH coupled, Kinase-Glo luminescence, 60 min | Potency, µM (titrated, usually from 57.5 µM), without a hit: top-dose activity change, negative = inhibition, usual class: inhibitors | AID 602233 | hit rate 0.043% among 380,000; also: potency is read from the fitted curve at half-maximal effect; % is scaled to controls: 0 for no effect and ±100 for the full control effect; nearly all actives have a fitted effect of over 60% in size
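Luminescent ATP detection (Kinase-Glo Plus) follows a 60-minute room-temperature incubation, with wells lacking PGK as controls. Buffer: 100 mM TEA (pH 7.6), 5 mM MgCl2, 0.01% Tween-20. Coupling enzyme GAPDH (100 nM final) supplies unstable 1,3-BPG in-well.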
GLS inhibitor: inhibitors of human glutaminase (GLS). AID 624170. Potency, µM (series often up to 45.5 µM), for inactives: at the highest dose activity change, negative = inhibition, most hits filed as inhibitors. GLS enzymatic activity, qHTS titration. hit rate 0.21% among 410,000; also: potency is read from the fitted curve at half-maximal effect; % is scaled to controls: 0 for no effect and ±100 for the full control effect
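Assay buffer: 45 mM KH2PO4 pH 8.2, 0.02% Tween-20. hKGA acts on L-glutamine (1 mM solution added); product glutamate is reported by an oxidase/peroxidase Amplex Red coupling, with fluorescence taken at baseline and 30 min.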
JMJD2A Tudor: inhibitors of human JMJD2A Tudor domain; Potency, µM (doses to about 114 µM), inactives show at the top dose activity change, negative = inhibition, hits mostly inhibitors; hit rate 4.4% among 390,000; AlphaScreen JMJD2A-Tudor / H3K4me3 peptide binding; also: potency is read from the fitted curve at half-maximal effect; % is scaled to controls: 0 for no effect and ±100 for the full control effect; nearly all actives have a fitted effect of over 50% in size
* hit, by the source's call; i = inactive; ? = inconclusive; . = not tested or not shown; [ ] = remark or other dose. Unless noted, calls follow the shape of the dose curve; as a rule, active = well fitted curve in the direction sought with a large enough effect; inconclusive = small, poorly fitted or top-dose-only effect, or another doubt; inactive = no such curve, though single readings can be large; an effect the other way counts as inactive or inconclusive. Some of the compounds tested. The share of hits here may be higher or lower than overall.

SMILES | HP1b chromo inh | ERG-DNA inh | G9a block | PI4K2A block | Pin1 inhibitor | PGK inhibitor | GLS inhibitor | JMJD2A Tudor
COc1cccc(C2NC(=O)NC(C)=C2C(=O)Nc2ccc(C)cc2)c1 (centres undefined) | 35% | 5% | -45% | -7 | 1% | i | 2% | -26%
O=C(CN1CCOCC1)N/N=C/c1ccc(-c2ccc(C(=O)O)cc2)o1 | 2% | -3% | 40µM* | 0 | -2% | -8% | 0% | 2%
CC1CCCN(C(=O)COc2ccc(Nc3ccccc3)cc2)C1 (centres undefined) | -31% | -2% | 40µM* | 4 | 0% | i | -15% | -33%
O=C(O)c1ccc2c(=O)n3c(nc2c1)/C(=C/c1ccc(Cl)c([N+](=O)[O-])c1)CC3 | 5% | -9% | -5%[59 µM] | -9 | -5% | -9% | -1% | -25%
COc1ccc(C2NC(=O)NC(C)=C2C(=O)Nc2cccc(C)c2C)cc1 (centres undefined) | 26% | 6% | -6% | -1 | 0% | -5% | -1% | -13%
Cn1c(CCN2CCCCC2)nc2cc([N+](=O)[O-])ccc21 | 25% | . | -11% | -1 | -4% | -8% | -5% | -5%
Cc1[nH]c2ccccc2c1/C=N/NC(=O)c1cc(-c2ccccc2)n[nH]1 | -5% | 11% | . | 3 | 1% | 4% | 0% | ?
N#CC1=C2SCC(O)(c3ccccc3)N2C(=O)CC1c1ccccc1F (centres undefined) | 5% | ? | ? | 5 | 42%[activator] | -9% | -2% | ?
O=C(N1CCN(c2ccccc2)CC1)C(F)(F)C(F)F | 30%[activator] | -7% | ? | 6 | -8% | -4% | 5% | 8%
COc1ccc(CNC(=O)CCCn2ncn3c(cc4occc43)c2=O)cc1 | 21%[57 µM] | -2% | 13%[59 µM] | -6 | 7% | 2% | 0% | -2%
CCOCCn1c(=NC(=O)CSCC(=O)N2CCOCC2)sc2cc(OC)ccc21 | 15% | -4% | 13% | -1 | -3% | -3% | -11% | 2%
COc1cccc(/C(O)=C2/C(=O)C(=O)N(CCN(C)C)C2c2ccccn2)c1 (centres undefined) | 41% | -8% | 22µM* | 4 | 6% | -3% | -8% | ?
Nc1ncnc(Nc2ccc(F)c(Cl)c2)n1 | 38% | -2% | 3% | 18 | -1% | -4% | 4% | 0%
COc1ccc(-n2ccnc(NCc3cccs3)c2=O)cc1 | -6% | -2% | ? | -6 | 4% | i | 3% | -31%
O=C(c1ccc(O)cc1)c1ccc(C(=O)O)c(C(=O)O)c1 | 4% | 4% | ? | 4 | ? | -6% | -17% | ?

In another format: entries from further up.
Every second line gives: HP1b chromo inh	ERG-DNA inh	G9a block	PI4K2A block	Pin1 inhibitor	PGK inhibitor	GLS inhibitor	JMJD2A Tudor
Cc1[nH]c2ccccc2c1/C=N/NC(=O)c1cc(-c2ccccc2)n[nH]1
→ -5%	11%	.	3	1%	4%	0%	?
N#CC1=C2SCC(O)(c3ccccc3)N2C(=O)CC1c1ccccc1F (centres undefined)
→ 5%	?	?	5	42%[activator]	-9%	-2%	?
O=C(N1CCN(c2ccccc2)CC1)C(F)(F)C(F)F
→ 30%[activator]	-7%	?	6	-8%	-4%	5%	8%

Additional results follow:
SMILES | HP1b chromo inh | ERG-DNA inh | G9a block | PI4K2A block | Pin1 inhibitor | PGK inhibitor | GLS inhibitor | JMJD2A Tudor
COc1ccc(N2C(N)=NC(N)=NC23CCCC3)cc1 | 29% | 3% | 5% | -7 | 4% | -3% | 1% | -16%
O=[N+]([O-])c1cc2c(cc1CN1CCN(c3ccccc3)CC1)OCO2 | -21% | 3% | 10%[0.501 µM] | 0 | -9% | 8% | 9% | ?
CN(CC(=O)Nc1ccc(F)cc1[N+](=O)[O-])Cc1ccccc1 | ? | 2% | 50µM* | 3 | 3% | 10% | 2% | ?
CCCCOCC1CC(CC#CCN2CCCCC2)C(=O)O1 (centres undefined) | ? | 6% | 10µM* | -5 | 3% | -2% | 0% | ?
Cc1ccc2c(c1)-c1ncc(C(=O)c3cc(Br)ccc3O)cc1CO2 | ? | -7% | 8.9µM* | -3 | -4% | 1% | -6% | ?
COc1ccc(C(=O)NNC(=O)c2cccc(F)c2)cc1 | 16% | -5% | . | -3 | 0% | -9% | 1% | -11%
Cc1cc(-c2[nH]nc3c2C(c2cccc(O)c2)C(C#N)=C(N)O3)c(C)s1 (centres undefined) | 16% | -1% | -2% | 5 | 7% | -2% | 23% | -29%
Cc1cccc(-c2cc(C(=O)Nc3ccc4c(c3)OCCO4)c3ccccc3n2)c1 | 10% | 3% | 1%[59 µM] | -10 | 10% | 0% | -6% | -20%
Cc1cccc(N2CCN(Cc3nc(-c4cccc(Cl)c4)oc3C)CC2)n1 | ? | -3% | 0%[12.7 µM] | 2 | -3% | -1% | -13% | ?
Cc1c(Cl)cccc1Nc1nc(N)nc(CN2CCc3ccccc3C2)n1 | 5% | 1% | -51% | 7 | -2% | -6% | 8% | ?
Cc1noc(NS(=O)(=O)c2ccc(N/C=C\C(=O)c3ccc(Br)cc3)cc2)c1C | -25% | 5% | . | -7 | ? | -6% | 14% | ?
CCc1ccc(NS(=O)(=O)c2ccc3[nH]cc(C(=O)N4CCCCC4)c(=O)c3c2)cc1 | -2% | 5% | ? | -2 | 1% | -6% | -11% | -26%
S=C(c1ccc(N2CCCC2)c(Br)c1)N1CCCCC1 | ? | -3% | 18µM* | -4 | 5% | -7% | -5% | ?
Cc1c(C)n(CCc2ccccc2)c2ncnc(NN)c12 | 18% | -7% | 37%[0.501 µM] | -2 | 0% | i | ? | ?
Cc1ccc(C)c(N2CCN(C(=O)Cc3cn(C)c4ccccc34)CC2)c1 | ? | 2% | 40µM* | -3 | 3% | 6% | 9% | ?
c1ccc(CNc2nc(CN3CCOCC3)nc3scc(-c4ccccc4)c23)cc1 | 7% | 6% | -35%[59 µM] | 1 | 0% | -1% | -8% | -14%
CN(CCOc1cccc(C(F)(F)F)c1)Cc1ccccc1 | ? | 0% | 8.9µM* | 5 | -8% | -2% | 1% | ?
Cc1cc(C(=O)NC(=S)Nc2ccccc2N2CCCC2)ccc1[N+](=O)[O-] | -5% | -4% | ? | 1 | 0% | 0% | 6% | -29%
C=CCN(Cc1nc(-c2ccc(OC)c(OC)c2)oc1C)C1CCS(=O)(=O)C1 (centres undefined) | 49%[activator] | -7% | 13µM* | 7 | -1% | -5% | 0% | -6%
O=C(CN1C(=O)S/C(=C\c2cccc(Cl)c2)C1=O)NCCCn1ccnc1 | 39% | 2% | . | 3 | -6% | -2% | 5% | 9%
CSc1ccc(S(=O)(=O)Nc2ccc3c(c2)OCCO3)cc1 | 54% | 1% | 4% | -24 | -1% | i | 26% | -20%
CCOc1ccc(NC(=O)CSc2ccc3nnc(-c4ccccn4)n3n2)cc1 | 46%[activator] | -3% | 15% | -5 | 0% | -7% | 4% | -17%
O=C(Nc1cccc(-c2nc3ccccc3[nH]2)c1)c1ccco1 | 27% | -6% | ? | -3 | 6% | -9% | 2% | -8%
COCCNC(=O)CN1c2ccccc2CC1C (centres undefined) | 42%[activator] | -14% | ? | 3 | 3% | 2% | 36%[activator] | -19%
Cc1ccc(CC(=O)CCc2ccccc2)cc1 | 215%[activator] | -15% | -5%[2.33 µM] | -1 | -2% | -11% | -7% | 154%[activator]
O=C(COC(=O)CNC(=O)c1ccc(-c2ccccc2)cc1)NCc1ccco1 | 19% | 8% | -27% | 0 | -3% | i | 52%[activator] | -32%
CC(C)C[C@H](NC(=O)OC(C)(C)C)C(=O)N1CCC(C(=O)O)CC1 | 22% | 1% | 28%[0.501 µM] | 1 | -5% | -4% | 11% | -8%
CN(c1ccc(O)cc1)c1nc(-c2cccnc2)cs1 | ? | -2% | . | 1 | 0% | 6% | 19% | -29%
COc1ccc(/C=C\C(=O)NCc2ccc3c(c2)cc(C)n3C)cc1OC | -8% | ? | 45µM* | -1 | ? | -2% | 0% | ?
Cc1cc(F)ccc1S(=O)(=O)NCC(c1cccnc1)N1CCc2ccccc21 (centres undefined) | 42% | 5% | ? | -1 | -1% | -2% | 2% | -4%
Fc1ccc(-c2ccc(CNCCSc3nnnn3-c3ccccc3)o2)cc1Cl | -18% | 3% | ? | 4 | 6% | 1% | 18% | -17%
CCC(=O)N/N=C(\C)CC(=O)Nc1ccc2c(c1)OCCO2 | -4% | ? | ? | -4 | -3% | -3% | -9% | -15%
Cc1ccc2onc(CC(=O)N(C)c3ccccc3)c2c1 | 1% | 5% | 11µM* | 1 | ? | -4% | 0% | ?
CSc1n[nH]c(NCc2ccccc2)n1 | 26% | 6% | -18%[12.7 µM] | 9 | 0% | -1% | 25% | -1%
CCCc1cc(=O)oc2c(C)c(OCC(=O)Nc3cccnc3)ccc12 | 57%[activator] | 2% | 8% | 11 | -4% | -3% | 6% | ?
COc1ccc(NC(=O)CSc2ccc3nnc(-c4ccccn4)n3n2)c(OC)c1 | 28% | 2% | 8% | 7 | 3% | 15% | 11% | -20%
O=C(NCc1cccnc1)c1ccc2c(c1)N(Cc1ccccc1)CCS2 | -14% | -15% | . | -16 | 2% | i | -9% | ?
CCOC(=O)C1=NN(c2cccc(C)c2)C2(S1)SC(C(C)=O)=C(C)N2c1ccccc1 (centres undefined) | 21% | -12% | 16µM* | 7 | -9% | 1% | . | 9%
Cc1ccccc1OCCSc1nnc(-c2ccncc2)n1C | 11% | 5% | 4%[59 µM] | -2 | -6% | -2% | 2% | -13%
CC(=O)c1cc(-c2ccc(F)cc2)n(CCC(=O)Nc2cccc(C)n2)c1C | 29% | 15% | -43% | 1 | -8% | -6% | -3% | -19%
CCOc1ccc(NC(=O)c2ccc3c(c2)CCN3S(=O)(=O)CC)cc1 | -5% | -1% | ? | -3 | 4% | -5% | 0% | ?
